# Screening results as filed in PubChem.
# MT1-MMP act inh: blockers of MT1-MMP proenzyme processing, primary screen, HT1080 RFP-PRO-GFP cells, GFP/RFP fluorescence | Matrix metalloproteinase-14 (Homo sapiens), P50281 | GFP/RFP ratio fluorescence, overnight; percent of plate control window, DMSO zero | GFP/RFP ratio change, % at 20 µM | 360,000 compounds, 0.061% hits;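 active = GFP/RFP ratio change of at least 30% with cell ATP level not reduced by more than half and red fluorescence within 50% of control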; also: strong numbers were not always called active
#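 Test system: HT1080 RFP-PRO-GFP cells; Benchmarks: DMSO and RFP-L50D-GFP cell wells; Timing: cells overnight before dosing, compound overnight, 37 °C, 5% CO2; Compound: one 20 µM compound dose with 1% DMSO; Read-out: GFP/RFP fluorescence ratio.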
# Yeast UUG start: modulators of yeast start codon fidelity, primary screen, whole organism, S. cerevisiae, single point, plate reader; AID 602363, 2012; activity score, % at 18.7 µM; 350,000 compounds, 0.13% hits; S. cerevisiae UUG-firefly luciferase reporter, luminescence/redox ratio;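 active = replicate mean at a twofold rise or more, about +100% in these data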;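 also: firefly luciferase made from a UUG start codon reports start codon fidelity; reporter light over untreated wells divided by growth signal over untreated wells; some hits fall short of that in this replicate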
# Env fusion inh: inhibitors of HIV-1 Env-driven cell-cell fusion, primary screen, HeLa-JRFL effector, CEM21 target cells, luciferase; inhibition, % at 12.3 µM; 360,000 compounds, 1.1% hits; AID 651610, 2012;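 active = mean replicate inhibition score of at least 50 and every replicate individually at or above 50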;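 also: 0% = plate neutral controls and 100% = maraviroc near 300 nM; one replicate is shown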
# PABP FP inh: PABP poly(A) RNA binding inhibitors, primary screen, biochemical, fluorescence polarization, uHTS; inhibition, % at 35 µM; 290,000 compounds, 1% hits;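 active = 50% or more with normal probe brightness, or confirmed in later tests; about a fifth of its hits are not listed in these tables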;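 also: calls also rest on retests at 20 µM and on dose response follow-up; controls were probe without protein and protein plus probe with vehicle; some compounds called inactive have numbers as strong as hits; many hits fall short of the cut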
# Target sequence (P11940 whole entry, looked up): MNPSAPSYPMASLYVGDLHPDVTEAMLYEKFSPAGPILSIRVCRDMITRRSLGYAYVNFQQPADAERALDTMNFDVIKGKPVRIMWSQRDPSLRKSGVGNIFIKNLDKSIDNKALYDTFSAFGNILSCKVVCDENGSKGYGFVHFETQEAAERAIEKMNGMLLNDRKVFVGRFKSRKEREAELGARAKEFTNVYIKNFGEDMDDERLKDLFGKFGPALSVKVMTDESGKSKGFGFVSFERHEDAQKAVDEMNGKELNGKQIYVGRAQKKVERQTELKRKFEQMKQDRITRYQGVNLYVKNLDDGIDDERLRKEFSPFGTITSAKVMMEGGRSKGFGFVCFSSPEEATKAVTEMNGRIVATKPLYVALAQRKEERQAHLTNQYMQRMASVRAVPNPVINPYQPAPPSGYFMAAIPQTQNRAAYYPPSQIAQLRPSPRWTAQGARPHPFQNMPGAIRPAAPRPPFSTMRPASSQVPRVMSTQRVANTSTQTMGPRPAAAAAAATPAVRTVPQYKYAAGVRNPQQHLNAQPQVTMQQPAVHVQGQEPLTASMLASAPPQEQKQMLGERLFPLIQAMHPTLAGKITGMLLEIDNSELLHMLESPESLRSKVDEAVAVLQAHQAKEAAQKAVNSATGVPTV
# Rce1 inhib: yeast Rce1p protease inhibitors, primary screen, biochemical, fluorescence, cell-free homogeneous | CAAX prenyl protease 2 (Saccharomyces cerevisiae (strain ATCC 204508 / S288c)), Q03530 | yeast membranes, quenched prenylated peptide cleavage fluorescence | calls only | 290,000 compounds, 0.27% hits | AID 2563, 2010;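 active = fall in fluorescence gain of 50% or more versus controls, with final raw signal at or below 3038400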;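 also: plate controls were neutral control wells for no effect and wells lacking membranes for full effect; tested at 10 µM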
# Target sequence (Q03530 whole entry, looked up): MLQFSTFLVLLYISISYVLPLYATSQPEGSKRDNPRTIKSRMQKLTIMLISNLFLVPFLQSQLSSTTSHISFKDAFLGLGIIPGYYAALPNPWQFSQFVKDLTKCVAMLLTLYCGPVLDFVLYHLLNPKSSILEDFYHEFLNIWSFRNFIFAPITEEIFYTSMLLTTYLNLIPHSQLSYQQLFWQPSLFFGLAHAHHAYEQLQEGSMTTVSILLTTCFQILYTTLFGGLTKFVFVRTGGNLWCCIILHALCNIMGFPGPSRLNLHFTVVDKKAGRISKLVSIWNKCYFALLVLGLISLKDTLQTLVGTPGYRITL
# CSC inhib: cancer stem cell viability inhibitors, primary screen, luminescence. AID 2717, 2010. cancer stem cell-like cells viability. inhibition, % at 7.5 µM. 300,000 compounds, 1.1% hits;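 active = mean at 75% or more and at least half the replicates too; tested in HMLE shEcad cells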;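 also: 0% = median of negative and 100% = median of positive control wells; the first replicate is given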
# eIF4H FP inh: human eIF4H binding inhibitors, primary screen, translation initiation inhibitor project, biochemical, uHTS, fluorescence polarization | 290,000 compounds, 0.94% hits | inhibition, % at 35 µM | AID 2012, 2009 | eIF4H fluorescence polarization binding assay;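 active = 50% or more with normal probe brightness, or confirmed in later tests; about a fifth of its hits are not listed in these tables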;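 also: calls also rest on retests at 20 µM and on dose response follow-up; 0% = protein and probe with vehicle and 100% = probe without protein; strong numbers were not always called active; many hits fall short of the cut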
# MT1-MMP act inh RFP: further read-out of MT1-MMP act inh, marked with its call; RFP signal change, %; measured here: RFP expression control read;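 0 = vehicle wells; hits needed this value within 50% of zero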
# Starred values were filed as active, the others as inactive; i = inactive; . = no result given; & = joins results of further samples; [ ] = remark or other dose.
SMILES,MT1-MMP act inh,MT1-MMP act inh RFP,Yeast UUG start,Env fusion inh,PABP FP inh,Rce1 inhib,CSC inhib,eIF4H FP inh
Cc1cccc(CSc2ccc3nnc(-c4cccnc4)n3n2)c1,10,3,.,1,-4,i,-12,-10
CCOC(=O)c1cccc(NC(=O)CCNS(=O)(=O)c2cccc3nonc23)c1,-3,-2,1,14,3,i,0,7
Cc1ccc(-c2ccc(=O)n(CC(=O)NCCCN3CCCCC3C)n2)cc1 (stereo unspecified),-1,2,-8,.,5,i,-9,-6
Cc1cccc(Cc2nnc(CCC(=O)NCc3cn4ccccc4n3)o2)c1,0,0,.,13,-6,i,-6,-10
CCOc1ccccc1C(=O)N1CCCCC1C (stereo unspecified),1,6,-16,-30,1,i,-10,-8
CCOC(=O)C(C(=O)OCC)C(C(=O)OCC)N1CCOCC1 (stereo unspecified),0,2,.,.,7,i,35,2
CCN(c1ccc(OC)cc1)S(=O)(=O)c1ccc2c(c1)CCN2C(=O)CCC(=O)O,7,4,-13,-3,-3,i,.,-1
CC(=O)Nc1ccc(S(=O)(=O)N/N=C/c2ccc(C)o2)cc1,5,0,-31,-8,9,i,-5,15
O=C(O)c1ccc([N+](=O)[O-])cc1-c1cc([N+](=O)[O-])ccc1C(=O)O,2,3,-6,-1,.,.,.,.
CCCC(=O)NCc1nc2ccccc2n1CC(=O)c1ccccc1,-2,-2,-15,13,4,i,8,-6
Cn1c(SCc2cccc(F)c2)nnc1-c1ccncc1,4,7,-5,-3,-1,i,-13,3
COc1ccc(/C=C2\SC(=O)N(CC(=O)Nc3ccccc3O)C2=O)cc1OC,3,1,-5,7,-12,i,8,2
COc1ccc(Cl)cc1NC(=O)CN(C)C(=O)c1cc(-c2ccncc2)nc2ccccc12,-3,4,-12,13,.,i,19,.
CCOC(=O)C1CCN(C(=O)c2cccc(NC(=O)C(CC)CC)c2)CC1,5,3,2,.,-2,i,.,-6
COc1cccc(C2C(C(=O)Nc3nc4ccccc4s3)=C(C)NC3=C2C(=O)CC(C)(C)C3)c1OC (stereo unspecified),-8,-5,-3,.,4,i,-8,-4
COc1ccc(CCC(=O)Nc2ccc(S(=O)(=O)N3CCOCC3)cc2)cc1OC,-5,0,-2,2,.,.,.,.
O=C(Nc1cccc(NC(=O)c2cccs2)c1)c1cccnc1,1,0,-10,0,-12,i,.,-11
CC1CCN(Cc2nc3c(c(=O)n(C)c(=O)n3C)n2CCCc2ccccc2)CC1,-6,-3,-7,.,2,i,-24,-5
CCOC(=O)CN(Cc1ccccc1)C(=O)OC(C)(C)C,.,.,.,.,-8,i,-12,6
O=C(C1CC1)N1CCCC(c2ccc(Cl)cc2)=N1,6,-1,3,14,31,i,-5,-3
CCOC(=O)CC1=NN(c2ccccc2)C(=O)/C1=C\c1ccc(N(C)C)cc1,0,-1,.,11,-4,i,-1,-3
Cc1ccc(Cl)cc1NC(=O)c1ccc(NC(=O)CCC(=O)O)cc1,-1,3,4,9,-5,i,-5,3
Cc1cccc(N(CC(=O)N2CCCC2)S(C)(=O)=O)c1,-3,0,-24,-12,-6,i,-1,-10
Cc1sc2nc(SCCN(C)C)n(-c3ccccc3)c(=O)c2c1-c1ccc(F)cc1,-6,-3,-3,4,-3,i,109*,8
CC(=O)Nc1ccc(Oc2cc(C#N)c(C#N)cc2N2CCCCCC2)cc1,-20,-28,-17,.,-2,.,-18,0
# Additional compounds follow.
SMILES,MT1-MMP act inh,MT1-MMP act inh RFP,Yeast UUG start,Env fusion inh,PABP FP inh,Rce1 inhib,CSC inhib,eIF4H FP inh
COc1ccc(C(C[N+](=O)[O-])c2c(C)[nH]c3ccccc23)cc1OC (stereo unspecified),-2,-2,.,-5,1,i,.,-11
COc1cc(OC)nc(C(NC(=O)C2CCN(Cc3ccc(Oc4ccccc4)cc3)CC2)c2ccccc2C)n1 (stereo unspecified),-1,-5,2,-28,.,.,.,.
COc1cccc(C(=O)Nc2ccc3c(c2)OCO3)c1OC,1,2,-4,-45,4,i,2,-12
CC(=O)c1ccc(OCC(=O)N(C)C2CCS(=O)(=O)C2)cc1 (stereo unspecified),-2,4,-14,-15,.,.,.,.
CCN(c1ccc(NC(=O)COC(=O)/C=C/c2cccs2)cc1)C(C)C,4,7,.,3,32,i,-18,-5
O=S(=O)(NC1CCCC1)c1ccc(S(=O)(=O)N2CCc3ccccc32)cc1,-10,-21,.,.,-2,.,15,2
COc1ccc(Cl)cc1C(=O)Nc1ccc(N(C)C(C)=O)cc1,5,3,-26,.,7,i,11,-4
CN(C)C(=S)Nc1ccc2ccccc2c1,6,6,.,8,1,i,-7,-8
CCCCCc1c(C)c(C#N)c2nc3ccccc3n2c1-n1ccnc1C,.,.,-21,-14,3,i,-12,4
Nc1nc(SCc2c(F)cccc2Cl)[nH]c(=O)c1-c1ccccc1,0,-4,-11,1,0,i,.,3
CCCNC(=O)C(Cc1ccc(C(F)(F)F)cc1)NC(=O)c1ccc2ccccc2n1 (stereo unspecified),2,-7,-13,-57,.,.,-10,.
Cc1nn(C(C)C(=O)N2CCOCC2)c(=O)c2nn(-c3ccccc3)c(C)c12 (stereo unspecified),-3,-1,-18,-5,0,i,3,-13
CN(C)Cc1cn(CCC(=O)O)c2ccccc12,4,4,-11,-34,.,i,-8,.
Cn1c(=O)[nH]c(=O)c2c1nc1n2CC(O)CN1c1ccccc1 (stereo unspecified),-1,-2,2,-3,11,i,2,-1
Cc1nc(NC(=O)c2cnccn2)ccc1Br,4,0,-22,-26,-2,i,5,-10
Cc1ccc(S(=O)(=O)N(C)C)cc1-n1c(SCC(=O)Nc2ccc(F)c(F)c2F)nc2ccccc2c1=O,-15,-14,-13,.,-11,i,-1,-8
Cc1cc2cc(CNC(=O)CCC(=O)O)ccc2[nH]1,4,2,3,-11,11,i,1,6
O=c1oc2ccccc2c(NC(c2ccccc2)c2ccccc2)c1[N+](=O)[O-],2,2,-16,-1,12,i,-1,8
CC(C)(C)[C@H]1C=C(C(N)=O)O[C@@H](OCc2ccc(CO)cc2)C1,2,2,-6&-1,-9[16.7 µM],4,i,-3,2
Cc1ccccc1NC(=O)c1nn(C)c2c1CS(=O)(=O)c1ccccc1-2,-1,2,-5,-3,-6,i,-1,-2
CN(C)CC(=O)Nc1cc(C(F)(F)F)ccc1Cl,2,6,-19,.,9,.,-3,-3
CCOC(=O)/C(=C/c1ccc(Cl)cc1)NC(=O)c1ccco1,1,-1,-23,0,0,i,7,-3
Cc1ccc(/C=C/C(=O)NC(=S)N2CCN(C)CC2)cc1,3,3,.,-10,4,i,20,-4
CSC[C@H](NC(=O)COc1cc2c(c3oc(=O)c(C)c(C)c13)CCC(C)(C)O2)C(=O)O,-2,0,6,20,8,i,-3,-11
CCOc1ccccc1/C=N/NC(=O)CNC(=O)COc1ccccc1,-4,-1,.,3,1,i,-8,-2
# Carrying on:
SMILES,MT1-MMP act inh,MT1-MMP act inh RFP,Yeast UUG start,Env fusion inh,PABP FP inh,Rce1 inhib,CSC inhib,eIF4H FP inh
CC(=O)N1CCc2cc(S(=O)(=O)N3CC(C)CC(C)C3)ccc21 (stereo unspecified),7,2,-7,1,8,i,-11,-3
CCOc1ccccc1C(=O)N[C@H](C(=O)OCc1cc(=O)oc2cc(C)ccc12)C(C)C,.,.,-14,.,5,i,.,11
COc1ccc(C2=NOC3(CC(=O)N(c4ccc(F)cc4)C3=O)C2)cc1 (stereo unspecified),1,8,.,5,18,i,-3,-1
Cc1ccc(CNC(=O)c2nn(C)c3c2CS(=O)(=O)c2ccccc2-3)cc1,-1,2,9,-9,.,i,-11,.
O=C(CCn1c(=S)[nH]c2ccccc2c1=O)Nc1cccc(Cl)c1,3,-5,-19,4,-4,i,-11,-5
COc1ccc(O)c(C(=O)CC(=O)c2ccccc2)c1,.,.,.,.,3,i,3,4
Cc1nc(N2CCC(C)CC2)c2nnn(Cc3ccccc3)c2n1,2,-8,3,.,9,i,-3,-7
COc1ccc(-c2coc3c(C(=O)NCCN(C)C)cccc23)c(C)c1,7,0,-4,1,.,.,.,.
COCC1CCN(C(=O)c2cc(COc3ccc(OC)c4ccccc34)on2)C1 (stereo unspecified),.,.,-11,-32,19,i,16,26
COc1cc(C2Oc3ccccc3C=C2[N+](=O)[O-])cc(OC)c1OC (stereo unspecified),3,-8,-18,-42,-3,.,.,2
N#Cc1nc(Cc2cccc3ccccc23)oc1NCc1ccco1,-10,-9,-2,.,8,i,.,-7
CCN1CCN(C(=O)C2CCC(CNS(=O)(=O)c3ccc(NC(C)=O)cc3)CC2)CC1 (stereo unspecified),1,7,-10,-5,-3,i,-9,-2
Cc1cc(C)n(-c2ccc(C(=O)OCC(=O)c3ccc(Br)s3)cc2)n1,2,6,-11,-9,3,i,-2,5
Cc1ccc(/C=N/NC(=O)CCCOc2ccc(Cl)cc2Cl)cc1,-4,-5,-3,24,-3,i,58,-4
CC(C)(C)OC(=O)N(CCc1ccccc1)Cc1cccc(OCc2cccc(NC(=O)C3CCCC3)c2)c1,-7,-15,-23,-16,.,.,.,.
CN(C)c1ccc(-c2nc3ccccc3c(=O)[nH]2)cc1,-4,1,.,-15,-5,i,19,2
CC(C)=CCC/C(C)=C/CNC(=O)C[C@H]1C[C@H](C(=O)N(C(C)C)C(C)C)[C@@]2(C)c3[nH]c4cc(-c5ccco5)ccc4c3CCN2C1=O,-11,-17,-6,29,.,.,.,.
COc1ccc(C)cc1N/C(N)=N/c1nc(C)cc(C)n1,1,-3,.,7,8,i,-5,-6
COCCn1c(C)cc(/C=C2/SC(=O)N(C(C)C(=O)OC)C2=O)c1C (stereo unspecified),2,-1,.,-68,-2,i,3,3
Cn1c(CNC(=O)CNC(=O)c2cccc(Cl)c2)cc(=O)n(C)c1=O,5,8,-4,9,5,i,-7,4
Cc1ccc(/C=C/S(=O)(=O)NCC(=O)OCC(=O)NCc2ccccc2)cc1,-2,-1,-4,-10,-2,i,-7,-6
O=C(Nc1cccc(F)c1)c1ccc2c(c1)OCCO2,2,-3,-19,-64,-4,i,-2,2
O=C(NCCCN1CCN(c2cccc(Cl)c2)CC1)c1ccc(N2CCCC2=O)cc1,1,-1,-5,.,1,i,1,-5
C=CCNC1=C(Cl)C(=O)c2ccccc2C1=O,2,4,-25,-17,30,i,43,5
O=C(O)CCNC(=O)/C(=C\c1ccco1)NC(=O)c1ccco1,-3,3,-9,8,21,i,-2,28
COc1cccc(-c2ccc(SCc3ccccn3)nn2)c1,1,1,.,-29,19,i,7,2

# 5 compounds drawn at random from the list so far:
SMILES,MT1-MMP act inh,MT1-MMP act inh RFP,Yeast UUG start,Env fusion inh,PABP FP inh,Rce1 inhib,CSC inhib,eIF4H FP inh
Cc1nc(N2CCC(C)CC2)c2nnn(Cc3ccccc3)c2n1,2,-8,3,.,9,i,-3,-7
COc1ccc(C)cc1N/C(N)=N/c1nc(C)cc(C)n1,1,-3,.,7,8,i,-5,-6
O=C(Nc1cccc(F)c1)c1ccc2c(c1)OCCO2,2,-3,-19,-64,-4,i,-2,2
COCC1CCN(C(=O)c2cc(COc3ccc(OC)c4ccccc34)on2)C1 (stereo unspecified),.,.,-11,-32,19,i,16,26
COc1ccc(O)c(C(=O)CC(=O)c2ccccc2)c1,.,.,.,.,3,i,3,4
